Source: PubChem
Sa ugtP lethal: compounds lethal to S. aureus RN4220 ugtP deletion mutant | OD600 growth, 16 h; some inactives read as strong as hits | growth inhibition, % (no concentration beside the values) | 330,000 tested, 0.54% active;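 active = z-score under -3 and OD600 up to 0.15 on both plates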;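 note: plate controls were untreated wells for no effect and antibiotic for full effect; wells of about 80 µL received 100 nL stock; the first replicate is given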
BJeLR viability: kills HRASV12-expressing BJeLR cells; BJeLR (HRASV12) viability, CellTiter-Glo ATP luminescence, 48 h; reference of the scale not given here; inhibition, % (concentration not given with the values); 300,000 tested, 0.17% active; AID 1554;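 active = replicate mean above 50%; inconclusive = above 50% but judged a plate artefact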;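 note: 50 nL library stock added to about 25 µL; numbers are from one replicate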
Bead autofluor: counter-screen for toxin protease inhibitors: compound fluorescence; compound autofluorescence counterscreen, microsphere flow cytometry; stronger effect = higher value; fluorescence intensity (no concentration beside the values); 360,000 tested, 3.1% active;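 active = at least 3 SD above the mean of all compounds, about 16000 in these data; inconclusive = too few beads counted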;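 note: 100 nL of 1 mM stock went into each well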
RN4220 kill: kills Staphylococcus aureus RN4220; S. aureus RN4220 growth, OD600, 16 h; AID 1259311; inhibition, % (no concentration beside the values); 330,000 tested, 0.33% active;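 active = z-score of -3 or lower and OD600 up to 0.18 on both plates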;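 note: plate controls were untreated cells for no effect and reference antibiotic for full effect; stock transfer was 100 nL into about 80 µL; one replicate is shown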
Mtb hypoxia rep: inhibitors of hypoxia-regulated fluorescent reporter in Mycobacterium tuberculosis | AID 1159583 | 300,000 tested, 0.1% active | fluorescence inhibition, % (test concentration not listed) | M. tuberculosis hypoxia-regulated fluorescent reporter, fluorescence;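 active = 35 to 45% if threefold the growth effect, above 45% if 1.5-fold the growth effect; inactive = the rest, general growth blockers included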;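 note: wells of about 50 µL received 100 nL stock; 0% = vehicle wells and 100% = reference inhibitor wells; whole bacteria with a GFP reporter of the hypoxia response; strong numbers were not always called active; many hits fall short of the cut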
PrP UTR inh: inhibition of PrP 5' UTR reporter expression; inhibition, % (no concentration beside the values); cell-based PrP 5' UTR mRNA reporter, plate reader; 340,000 tested, 0.35% active; AID 488862;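 active = every replicate at 50% or more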;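 note: 0 = median of the neutral control wells; tested in H4 reporter cells; numbers are from one replicate; inactives centre near -14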
Mtb hypoxia rep growth: second read-out of Mtb hypoxia rep, no call of its own (marks repeat the call); growth inhibition, %; measured here: M. tuberculosis growth (absorbance);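 0% = vehicle and 100% = reference antibiotic; read after six days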
* hit, by the source's call; ? = inconclusive; . = no result given.

SMILES | Sa ugtP lethal | BJeLR viability | Bead autofluor | RN4220 kill | Mtb hypoxia rep | Mtb hypoxia rep growth | PrP UTR inh
COc1ccc(CC(C)=NNC(=O)c2ccncc2)cc1 | 13 | . | . | -0.5 | . | . | .
CC(=O)c1ccc(OCC(=O)N2CCCC(N(C)Cc3ccccc3)C2)cc1 (centres undefined) | 8 | -4 | 6191 | 0.8 | 13 | 2 | -18
CN1/C(=C\C=C2\N=C(c3ccc(F)cc3)OC2=O)C(C)(C)c2ccccc21 | 3 | 3 | 5295 | 20 | 16 | 4 | -24
COc1ccc(OC)c(S(=O)(=O)Nc2ccc3[nH]c(=O)[nH]c3c2)c1 | 1 | -2 | 3525 | 0.2 | -7 | 3 | -10
Cc1cccc(C)c1NC(=O)CNC(=O)C12CC3CC(CC(O)(C3)C1)C2 | 2 | -6 | ? | 3.8 | -5 | -8 | -16
O=C(CSc1ccc2ccccc2c1)Nc1nc2ccccc2[nH]1 | 0 | -3 | 2484 | 3.2 | 8 | 3 | -11
Cc1ccc(/C([O-])=C(/C(=S)NCCN2CCOCC2)[n+]2ccccc2)cc1[N+](=O)[O-] | -5 | -1 | 3386 | -2.0 | -2 | 10 | 3
O=C(Cc1ccccc1)NCC(=O)OCC(=O)c1ccc(Cl)c([N+](=O)[O-])c1 | . | -9 | 2505 | . | . | . | -34
O=C(O)c1cc(NN=Cc2c[nH]c3ccccc23)ccc1Cl | -1 | . | . | 2.1 | 16 | 2 | .
Cc1nonc1CN(C)C(=O)CC1C(=O)NCCN1Cc1ccccc1F (centres undefined) | -2 | -1 | 4926 | 2.0 | 10 | 8 | -7
Cc1ccc(C)c(NC(=O)CSc2n[nH]c(-c3ccncc3)n2)c1 | -2 | 9 | 4014 | 1.8 | . | . | -17
CCOC(=O)C1C(=O)NC(SCC(N)=O)=C(C#N)C1c1ccccc1OCC (centres undefined) | -5 | 0 | 9883 | 4.4 | 6 | -1 | -19

As a working copy, part of the list above:
SMILES | Sa ugtP lethal | BJeLR viability | Bead autofluor | RN4220 kill | Mtb hypoxia rep | Mtb hypoxia rep growth | PrP UTR inh
COc1ccc(CC(C)=NNC(=O)c2ccncc2)cc1 | 13 | . | . | -0.5 | . | . | .
CC(=O)c1ccc(OCC(=O)N2CCCC(N(C)Cc3ccccc3)C2)cc1 (centres undefined) | 8 | -4 | 6191 | 0.8 | 13 | 2 | -18
CN1/C(=C\C=C2\N=C(c3ccc(F)cc3)OC2=O)C(C)(C)c2ccccc21 | 3 | 3 | 5295 | 20 | 16 | 4 | -24

(cont.)
SMILES | Sa ugtP lethal | BJeLR viability | Bead autofluor | RN4220 kill | Mtb hypoxia rep | Mtb hypoxia rep growth | PrP UTR inh
Cc1ccc(CN(CC(=O)N/N=C/c2ccccc2[N+](=O)[O-])S(=O)(=O)c2ccc(C)cc2)cc1 | . | -3 | 2822 | . | . | . | -7
CN(C)S(=O)(=O)c1cccc(NC(=O)COC(=O)c2c[nH]c(=O)[nH]c2=O)c1 | 13 | 3 | 4272 | 5.5 | 14 | 5 | -4
COc1ccc([C@@H]2CC(=O)c3c(O)cc(O[C@@H]4OC(CO[C@@H]5OC(C)[C@H](O)[C@H](O)C5O)[C@@H](O)[C@@H](O)C4O)cc3O2)cc1O (some centres undefined) | . | -5 | 4381 | . | . | . | -14
O=C(c1ccc(OCC2CCCO2)cc1)N1CCN(c2ccccc2)CC1 (centres undefined) | 9 | -6 | 3646 | 3.6 | 8 | 7 | -6
O=C(CN1C(=O)NC2(CCCC2)C1=O)Nc1ccccc1 | 6 | -1 | 3116 | 1.2 | 13 | -6 | -14
CCC1CCCCN1CCCNC(=O)CS(=O)Cc1nc(-c2ccc(OC)c(OC)c2)oc1C (centres undefined) | -1 | 2 | ? | 1.7 | 6 | -3 | 7
Cc1ccc(NCc2nnc(SCC(=O)NCc3ccco3)n2CC2CCCO2)c(C)c1 (centres undefined) | 1 | -7 | 4626 | 1.4 | 17 | 11 | -24
Cc1ccc(C(=O)COC(=O)CNC(=O)Cc2ccccc2)cc1 | 11 | 5 | 5366 | 2.2 | 11 | -17 | -22
CCCCC(=O)Nc1cc(C)c2c(=O)oc3ccccc3c2n1 | 7 | 3 | 2472 | -3.5 | . | . | -17
CC(=O)Nc1ccc(C(=O)OCC(=O)Nc2ccccc2Sc2ccccc2)cc1 | -18 | -18 | 9804 | -0.3 | 10 | 5 | -10
CC1(C)CC(=O)C(C=NC(CCC(N)=O)C(=O)O)=C(O)C1 (centres undefined) | 6 | 0 | 10034 | 5.3 | 5 | 10 | -17
O=C(O)CCCn1cc(NC(=O)c2c(F)cccc2F)cn1 | -2 | 4 | 5120 | 3.2 | 2 | -1 | -29

In another format: two of the compounds above
Cc1ccc(NCc2nnc(SCC(=O)NCc3ccco3)n2CC2CCCO2)c(C)c1 (centres undefined)
  Sa ugtP lethal: 1
  BJeLR viability: -7
  Bead autofluor: 4626
  RN4220 kill: 1.4
  Mtb hypoxia rep: 17
  Mtb hypoxia rep growth: 11
  PrP UTR inh: -24
Cc1ccc(C(=O)COC(=O)CNC(=O)Cc2ccccc2)cc1
  Sa ugtP lethal: 11
  BJeLR viability: 5
  Bead autofluor: 5366
  RN4220 kill: 2.2
  Mtb hypoxia rep: 11
  Mtb hypoxia rep growth: -17
  PrP UTR inh: -22

Next results follow.
SMILES | Sa ugtP lethal | BJeLR viability | Bead autofluor | RN4220 kill | Mtb hypoxia rep | Mtb hypoxia rep growth | PrP UTR inh
Cc1c(N=C2SCC(=O)N2/N=C\c2ccc(Br)cc2)c(=O)n(-c2ccccc2)n1C | . | 4 | 2526 | . | . | . | -3
CCC(C)n1c(O)c(C(c2ccccn2)c2c(O)n(C(C)CC)c(=S)[nH]c2=O)c(=O)[nH]c1=S (centres undefined) | 2 | -1 | 5607 | 5.2 | 9 | 15 | -38
Cc1cc(C)nc(SCC(=O)N/N=C/c2cccnc2)n1 | . | -2 | ? | . | . | . | -8
COc1ccc(OC)c(NC(=O)Nc2c(O)ccc3ccccc23)c1 | 0 | 5 | 5759 | 5.5 | 6 | 4 | -27
CCS(=O)(=O)Nc1cccc(-c2nc3cccnc3s2)c1 | 5 | -7 | . | 4.9 | 13 | 10 | -15
COc1cccc(C(=O)Nc2c3c(nn2-c2ccc(Cl)cc2)CS(=O)(=O)C3)c1OC | -6 | 3 | 5493 | -0.7 | 6 | 6 | 3
CCn1c2ccc(F)cc2c2nnc(SCCN3CCCCC3)nc21 | 5 | 5 | 4136 | -1.3 | 6 | 0 | -11
CC12CNCC(C)(CN(C(c3ccccc3)c3ccccc3)C1)C2 | -10 | 6 | 2332 | 7.2 | 8 | 11 | -17
COc1ccc(N2CCN(S(=O)(=O)c3c(C)nc4scc(C)n4c3=O)CC2)cc1 | 15 | 1 | 4209 | 4.3 | 13 | 1 | 0
CCOc1ccc(N2C(=O)CC(Sc3nccc(C)n3)C2=O)cc1 (centres undefined) | -6 | 6 | 4227 | 6.7 | 11 | 5 | -9
CN(C)S(=O)(=O)N1CCC(Oc2cccc(C(=O)NC3CCOC3)c2)CC1 (centres undefined) | 15 | -9 | 6121 | 4.1 | 10 | 5 | -22
CCOC(=O)C1CCN(C(=O)COC(=O)c2ccccc2C(=O)c2ccc(Cl)cc2)CC1 | 1 | 1 | 5486 | 2.0 | 2 | -1 | -31
Cc1ccc(NC(=O)c2cccs2)cc1S(=O)(=O)N(C)C | -4 | -13 | 2905 | 7.4 | 5 | 6 | -25
C=CCN(CC=C)C(=S)NC(=O)/C=C/c1ccc(OC)cc1 | 0 | -7 | 1924 | 3.5 | 6 | 2 | -17
O=C(COc1cccc(Cl)c1)NN=Cc1cc2ccccc2nc1Cl | 1 | . | . | 11 | -3 | 2 | .
CN(Cc1c(C(=O)N/N=C/c2cccc(Cl)c2)nnn1-c1nonc1N)c1ccccc1 | . | 3 | 4197 | . | . | . | 1
O=[N+]([O-])c1ccc(COc2ccc(-c3[nH]ncc3-c3ccccc3)c(O)c2)cc1 | -5 | -15 | 2059 | 12 | -11 | -17 | -19
CCN(CC)c1ccc(CNc2ccc3c(c2)ncn3C(C)(C)C)cc1 | 8 | 4 | 3392 | 4.5 | 8 | 9 | 3
O=C(COS(=O)c1ccccc1)Nc1cc(Cl)ccc1N1CCOCC1 (centres undefined) | 10 | -3 | 2780 | 0.5 | 17 | 9 | -9
Cc1nn(-c2ccccc2)c2[nH]c(=O)c(CNc3ccc(N4CCOCC4)cc3)cc12 | 20 | -10 | 3480 | 5.5 | 17 | 11 | -7
COc1ccc(C(=O)Sc2ccc(C)cc2)cc1OC | 16 | -7 | . | 5.4 | 20 | 7 | 2
CCN1CCN(CCC(=O)Nc2ccccc2OC)CC1 | 5 | 9 | 10704 | 0.8 | -1 | -14 | -18
COCCNC(=O)COC(=O)c1cccnc1SC | 1 | -1 | 4357 | 1.1 | 10 | 4 | -16
COc1cc(C=NNC(=O)c2ccc(N3CCCC3=O)cc2)ccc1O | 9 | . | . | 4.1 | 24 | 15 | .
O=C(C1CC1)N1CCc2cc(Br)cc(S(=O)(=O)NCCCN3CCCC3)c21 | 2 | -1 | 12289 | 1.1 | 7 | 11 | -13
CC(C1CC2CCC1C2)N1CC(O)=C(c2nc3ccccc3[nH]2)C1=N (centres undefined) | 2 | 1 | 5217 | 0.0 | 3 | 6 | -10
FC(F)(F)c1cccc(NN=Cc2ccccc2)c1 | -30 | . | . | -15 | 3 | 3 | .
C/C=C/C=C\C(=O)Nc1cccc(C2=NOC3(C2)C[C@@H](C(N)=O)N(C(=O)c2cc([N+](=O)[O-])cc([N+](=O)[O-])c2)C3)c1 (some centres undefined) | . | -4 | 3750 | . | . | . | -18
Cc1cccc(OCCn2c(NC(=O)c3ccco3)nc3ccccc32)c1 | -20 | -7 | 4101 | 23 | 10 | 7 | 13
Cc1ccc(CNC(=O)[C@H](C)N2C(=O)N3CCc4c([nH]c5ccccc45)[C@@]3(C)C2=O)cc1 | 5 | -5 | 5833 | 5.8 | . | . | -47
O=C(N/N=C/c1c(O)n(Cc2ccccc2)c(=O)[nH]c1=O)c1ccncc1 | 12 | -2 | 3622 | 3.2 | -5 | -15 | .
COc1ccc(CCNC(=O)CCn2c(=O)c3cccn3c3cccnc32)cc1OC | 2 | -2 | 6101 | 2.6 | 14 | 5 | -7
COCCn1c(SCc2nc3ccccc3c(=O)[nH]2)nnc1-c1ccncc1 | 10 | 4 | 16786* | 5.8 | 13 | -4 | -12
COc1ccc(C(=O)Nc2nnc(Cc3ccc(OC)c(OC)c3)s2)c(OC)c1 | 1 | 3 | 3387 | 3.7 | -3 | -2 | -14
C=CCNc1nc(-c2sc(NC(C)=O)nc2C)cs1 | -10 | 4 | 3424 | 0.4 | 2 | 10 | -47
COc1ccc(C(=O)NC(=S)NCCc2ccccc2)cc1 | 14 | -4 | 2603 | 5.2 | 6 | 6 | -36
Cn1c(=O)c2c(nc(NCc3ccc4c(c3)OCO4)n2Cc2ccccc2Cl)n(C)c1=O | 4 | -3 | 17237* | 2.4 | 8 | 4 | 10
CCN(C(=O)CN1CCOCC1)c1c(N)n(Cc2ccccc2)c(=O)[nH]c1=O | 4 | 2 | 3049 | 8.1 | -8 | 9 | -16
Cc1ccc(S(=O)(=O)CCc2ccncc2)cc1 | 4 | 4 | 6148 | 2.9 | 4 | 10 | -9
COc1ccc(OCC(=O)N/N=C2\CCc3ccccc32)cc1 | . | -1 | 3609 | . | . | . | -45
COC(=O)N/N=C\c1ccc(OC(=O)c2ccco2)cc1 | . | -5 | 4531 | . | . | . | -48
COc1ccc(-c2nnc(SCc3nnc(-c4cccs4)o3)n2CC2CCCO2)cc1 (centres undefined) | 4 | 2 | 2544 | 5.5 | 1 | -4 | -14
O=C(Nc1ccccn1)C1CCN(S(=O)(=O)c2ccc(Cl)cc2)CC1 | 9 | -10 | 3870 | 0.9 | 5 | 9 | 0
Cc1cccc(OCC(=O)Nc2ccc(S(=O)(=O)N3CCN(C)CC3)cc2)c1 | 13 | -5 | 4810 | -1.1 | . | . | -5
Cc1cc(=O)[nH]c(=S)n1-c1ccccc1 | 1 | 0 | 9010 | 2.2 | -11 | -4 | 4
CCOc1ccccc1NC(=O)c1cccc2c1C(=O)N(CCOC)C2 | -9 | 1 | 6325 | -11 | 4 | 0 | -13
COC(=O)C(NC(=O)c1ccccc1)(Nc1nc(C)cs1)C(F)(F)F (centres undefined) | -4 | 0 | 7732 | 1.7 | 8 | 9 | -5
CC1CC(Nc2ccccc2)c2ccccc2N1C(=O)c1ccncc1 (centres undefined) | 3 | . | 3997 | 2.9 | 13 | 3 | -1
COCCN1Cc2c(sc(C)c2C)N(C(=O)c2ccccc2)C1 | -2 | 6 | 4695 | 0.8 | . | . | -61
